Compound activity: PubChem BioAssay, several laboratories
Mtb H37Rv – M. tuberculosis H37Rv growth inhibitors, H37Rv strain (AID 1626) | M. tuberculosis H37Rv growth inhibition; higher % means a stronger effect | actives 0.95% (n = 220,000) | inhibition, % at 10 µM; hits with a dose series show IC50 in µM;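 active = confirmed in a dose series; inconclusive = inhibition above 80% but not taken into the dose series; inactive = below 80% or under 30% at every dose of the series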;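 note: bacteria incubated seven days before Alamar blue readout; 0% = bacteria only wells and 100% = bacteria with antibiotic wells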
YopH inh – blocks Yersinia enterocolitica YopH tyrosine phosphatase; inhibition, %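 (about 10 µM by stock and volumes)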; fluorescence Ex485/Em525; actives 0.16% (n = 140,000);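 active = inhibition of 50% or more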;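 note: controls were vehicle for no effect and minimum signal wells for full effect; inactives centre near -20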
RecA splice inh – Mtb RecA intein splicing inhibition. AID 2221. inhibition, %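 (about 9 µM by stock and volumes)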. cell-free RecA intein splicing, fluorescence. actives 0.75% (n = 290,000); in the data active = inhibition above about 30%; inconclusive = no clear call, values can overlap the other calls;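 note: 0% = vehicle wells and 100% = reference inhibitor control wells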
Target sequence (P9WHJ3 whole entry, looked up, canonical isoform): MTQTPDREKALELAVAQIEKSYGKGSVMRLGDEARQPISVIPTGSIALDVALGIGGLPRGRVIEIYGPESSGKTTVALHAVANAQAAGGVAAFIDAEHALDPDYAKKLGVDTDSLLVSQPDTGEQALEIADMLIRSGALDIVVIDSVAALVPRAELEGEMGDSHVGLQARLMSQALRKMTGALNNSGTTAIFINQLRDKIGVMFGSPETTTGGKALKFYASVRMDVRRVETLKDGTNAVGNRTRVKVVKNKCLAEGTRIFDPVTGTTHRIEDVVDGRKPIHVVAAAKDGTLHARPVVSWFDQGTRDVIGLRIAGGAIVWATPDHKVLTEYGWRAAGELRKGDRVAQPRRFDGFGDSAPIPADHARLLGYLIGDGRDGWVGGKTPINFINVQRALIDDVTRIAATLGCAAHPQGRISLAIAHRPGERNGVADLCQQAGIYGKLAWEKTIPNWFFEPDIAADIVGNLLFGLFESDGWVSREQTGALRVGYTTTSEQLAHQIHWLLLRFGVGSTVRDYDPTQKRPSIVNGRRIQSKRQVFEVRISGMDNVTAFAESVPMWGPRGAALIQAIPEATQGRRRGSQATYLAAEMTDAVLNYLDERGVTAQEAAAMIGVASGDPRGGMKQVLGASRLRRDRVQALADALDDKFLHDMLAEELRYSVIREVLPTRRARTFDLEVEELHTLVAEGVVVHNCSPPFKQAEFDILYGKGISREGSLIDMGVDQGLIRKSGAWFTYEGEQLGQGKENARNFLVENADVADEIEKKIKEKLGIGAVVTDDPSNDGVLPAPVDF
Arbovirus inh – antivirals against arbovirus infection; inhibition, % at 10 µM; actives 0.37% (n = 200,000); arbovirus infection cell-based antiviral screen;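 active = inhibition from about 30%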;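 note: bluetongue infection of BSR cells; cell survival read as ATP light after 72 h; 0% = infected wells without compound and 100% = uninfected wells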
Mtb betalactam – beta-lactam sensitization of Mtb H37Rv; inhibition, % at 25 µM; actives 0.27% (n = 330,000); M. tuberculosis H37Rv growth with meropenem, percent inhibition; hits of this screen are not shown here;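 active = about 74% or more and at least 40 points above the plate without the antibiotic, then above 30% in a dose series; inconclusive = first-round hits that could not be retested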;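 note: growth measured after seven days incubation then overnight dye step; 0% = bacteria only wells and 100% = bacteria with antibiotic; twin plates without the antibiotic show which effects depend on it; some results filed as inactive read as strong as hits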
Arbovirus inh repeat – also measured in Arbovirus inh; calls as there; inhibition, %; measured here: 10K subset replicate screen; many hits read low in the repeat;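 first of two repeat runs on a subset; 0% = infected and 100% = uninfected wells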
* hit, by the source's call; ? = inconclusive; . = not tested or not shown.

SMILES	Mtb H37Rv	YopH inh	RecA splice inh	Arbovirus inh	Mtb betalactam	others
O=C(NC(=S)Nc1ccccc1Br)c1ccco1	.	.	-0.4	.	3
COc1ccc(-c2nc(SC(C)C(=O)NCC3CCCO3)n[nH]2)cc1 (centres undefined)	.	.	-0.6	.	1
Cc1ccc(Nc2nc(C(=O)N3CCC(C(=O)NCCN4CCOCC4)CC3)cs2)cc1	-2%	-37	-1.2	13	4
O=C(OCC(=O)N1CCN(c2ccccc2)CC1)c1ccccc1NCCO	.	.	-6.3	.	3
O=C(CSc1nc2nn(-c3ccccc3)c(=O)c-2c2n1CCCCC2)NCCc1ccccc1	-1%	.	1.7	32*	6
CCC(C)C(NC(=O)OC(C)(C)C)C(=O)NCc1ccco1 (centres undefined)	11%	-32	-4.5	3	-8
O=C(/C=C/c1ccccc1)NC(=S)Nc1cccnc1	6%	-18	.	4	15
NC(N)=Nc1nc2ccccc2o1	-6%	.	0.8	.	-5
COc1cc(CN(C)C)cc(C=O)c1O	-8%	.	-5.2	-2	-7
Cc1ccc([N+](=O)[O-])cc1NC(=O)Nc1onc(C)c1C	-7%	.	-1.0	.	2
CCN(CC)CCN(C(=O)c1cccc(N2C(=O)CCC2=O)c1)c1nc2cc3c(cc2s1)OCO3	-2%	.	-2.4	0	4
C=CCn1cccc(C(=O)Nc2ccc(OCC)cc2)c1=O	-6%	.	-0.8	7	5
CCOC(=O)CSc1ccc(C(=O)NCCCN2CCOCC2)cc1[N+](=O)[O-]	.	.	-2.1	.	2
O=C1CC(N2CCN(c3ccccc3Cl)CC2)C(=O)N1c1cccc(F)c1 (centres undefined)	-6%	17	-0.3	6	-6
CC(=O)c1cc(F)c(N2CCN(C(=O)C(C)(C)C)CC2)cc1C	3%	4	-2.0	8	-12
O=C(NC1CCCCCCC1)c1cc([N+](=O)[O-])ccc1Cl	.	.	1.1	.	2
COC(=O)Cn1c(=NC(=O)c2nc3ccccc3s2)sc2cc(S(N)(=O)=O)ccc21	4%	4	-2.7	1	3
Cc1ccc(C(=O)OCC(=O)Nc2ccc3[nH]c(=O)[nH]c3c2)cc1S(=O)(=O)N1CCOCC1	.	.	-2.1	.	-10
Cc1ccc(S(=O)(=O)Cc2cc(-c3ccc(Cl)cc3)no2)cc1	10%	.	-0.1	-1	-2
Cc1nc(NC(=O)c2ccccc2)sc1-c1csc(NCc2ccccc2)n1	23%	17	7.0	-27	85
O=C(CCNS(=O)(=O)c1ccc(Br)cc1)NCc1cccs1	1%	.	0.4	5	3
O=C(CCNC(=O)c1ccccc1Cl)N/N=C\c1ccc(O)cc1	-5%	.	-1.9	.	3
CCCNC(=O)C(Cc1ccccc1)NS(=O)(=O)c1cccc2nsnc12 (centres undefined)	-9%	-5	0.5	4	-2
CCCn1c(NC(=O)C23CC4CC(CC(O)(C4)C2)C3)nc2ccccc21	11µM*	.	2.9	14	68
O=C(CNC(=S)N(CCCN1CCOCC1)Cc1cccs1)NCCN1CCOCC1	5%	-15	0.6	-11	?
SMILES	Mtb H37Rv	YopH inh	RecA splice inh	Arbovirus inh	Mtb betalactam	others
O=C(Cc1ccccc1)N1CCN(CC2CC3C=CC2C3)CC1 (centres undefined)	-7%	-22	0.2	-1	-1
C=CCNc1nc2c(c(=O)n(C)c(=O)n2C)n1Cc1ccc(F)cc1	7%	-52	-0.8	14	8	Arbovirus inh repeat=12
Cn1c(N)c(C(=O)CSc2nnc(-c3ccccc3F)n2N)c(=O)n(C)c1=O	-2%	.	9.5	.	-4
O=C(O)c1ccc(COc2c(F)c(F)cc(F)c2F)cc1	-3%	9	-13	-1	6
CCNC(=O)CC1C(=O)N(c2ccccc2)C(=O)N1Cc1ccc(OC)cc1 (centres undefined)	-8%	31	1.4	-2	-3
CC(C)COc1ccc(CNC(=S)Nc2ccccc2)cc1Cl	.	.	3.6	.	5
O=C1c2cccnc2C(Nc2ccc(S(=O)(=O)N3CCCCC3)cc2)N1Cc1ccccc1 (centres undefined)	-1%	6	0.1	-4	-2
Cc1ccc(C(=O)Cn2nnc3c(sc4nc5c(c(-c6ccccc6)c43)CCC5)c2=O)cc1	10%	-21	1.0	7	61
O=C(NCc1ccccc1)C(c1ccncc1)N(C(=O)c1csnn1)C1CC1 (centres undefined)	-11%	-106	0.0	1	4
CCCN(CCC)C(=O)C1c2ccccc2Oc2ccccc21	2%	-22	0.8	-11	-4
O=C(NCc1cccs1)c1ccncc1	-10%	11	0.9	6	-1
CC1(C(=O)NC2CCCC2)CCC(=O)N1CCC1=CCCCC1 (centres undefined)	-1%	-18	2.1	6	-5
CCC(C)NC(=O)COC(=O)c1ccc(Cl)cc1O (centres undefined)	-1%	.	0.8	-1	4
CCN(C/C=C/c1ccccc1OC)Cc1ccccc1	.	.	0.1	.	-13
Cc1cc(=O)[nH]c(SCC(=O)Nc2nnc(CC(C)C)s2)n1	-5%	-56	-2.7	10	-2
OC(COc1ccccc1)CN1CCOCC1 (centres undefined)	-2%	-16	-0.4	-1	-1
CC(=O)N(Cc1cc2cc(C)ccc2[nH]c1=O)c1cccc(C)c1C	.	.	-4.8	.	0
O=C(COC(=O)c1ccccc1Nc1ccccc1)Nc1ccccc1	3%	-16	-2.1	-3	4
CN=C(Nc1ccc(C(=O)OC)cc1)SC1CC(=O)N(c2ccccc2F)C1=O (centres undefined)	7%	-35	-5.3	-1	-4
Cc1csc(NC(=O)CSc2ccc3nnc(CCNS(=O)(=O)c4ccccc4)n3n2)n1	-1%	-25	-1.3	2	7
Cc1cccc(-n2c(Cc3ccccc3)n[nH]c2=S)c1	-6%	.	0.5	5	-4
CCOc1ccc2c(c1)C(C)=CC(C)(C)N2C(=O)Nc1ccccc1F	-8%	-14	-1.2	-7	5
Cc1[nH]c(=O)c(C(=O)c2ccccc2O)cc1C(=O)O	3%	.	-4.4	8	-4
O=C(NCc1cccnc1)Nc1ccc(F)cc1F	-11%	-9	1.5	4	1
O=C(N/N=C/c1ccccc1F)c1cccc(NC(=O)c2ccccc2Cl)c1	.	.	3.6	.	8

Reprinted from the part before: two entries, followed by the next part.
SMILES	Mtb H37Rv	YopH inh	RecA splice inh	Arbovirus inh	Mtb betalactam	others
O=C(NCc1cccnc1)Nc1ccc(F)cc1F	-11%	-9	1.5	4	1
O=C(N/N=C/c1ccccc1F)c1cccc(NC(=O)c2ccccc2Cl)c1	.	.	3.6	.	8
COc1ccc(S(=O)(=O)N2CCC(C(=O)c3ccc4c(c3)OCCO4)CC2)cc1	-14%	15	3.5	-4	-1
O=C(Nc1ccc(N2CCOCC2)cc1)c1cccnc1	-6%	-36	-7.1	9	-8
COc1ccc(CNC(=O)COC(=O)c2cnccn2)cc1	-3%	-20	-3.8	-2	4
CN(C)C(=O)CSc1nc(-c2ccccc2)nc2c1CCCC2	4%	-26	0.1	-15	0
Cc1cc(C(=O)NNC(=O)NC(C)C)no1	2%	.	0.2	.	4
Cc1ccc(CN2CCN(CC(=O)N/N=C/c3ccc(C)o3)CC2)cc1	-3%	.	-1.3	.	-2
O=C(OC(C(=O)NCC1CCCO1)c1ccc(F)cc1)c1cccs1 (centres undefined)	-8%	-39	3.6	-3	-5
Cc1ccc(Cn2c(C3CCCN3c3nc(-c4ccc(F)cc4)cs3)nc3cc(C(F)(F)F)ccc32)cc1 (centres undefined)	3%	.	7.1	.	75
O=C(C1=C(O)C(=O)N(CCCn2ccnc2)C1c1cccc(Br)c1)c1ccco1 (centres undefined)	.	.	2.2	.	2
O=C(/C=C/c1ccccc1)NC(=S)NNC(=O)c1ccco1	-2%	-38	2.0	-5	-1
O=C(O)c1ccc(N/N=C/c2ccc3ncccc3c2)cc1	7%	-16	-3.6	2	15
CCN(CC)c1cccc(OCC(=O)N(C)CCC#N)c1	10%	-47	-11	2	0
CC(=O)Nc1ccc(S(=O)(=O)NCc2ccccn2)cc1	4%	-31	2.6	6	-2
O=C1CSC(c2ccc3c(c2)OCO3)N1c1ccc(Oc2ccccc2)cc1 (centres undefined)	4%	-169	2.4	-13	1
Cc1ccc(NC(=O)C2CCN(C(=O)NC3CCCCC3)CC2)cc1Cl	8%	-7	0.2	2	-4
O=C(NC(=S)N(CCc1ccccc1)CCc1ccccc1)c1ccco1	?	-48	6.7	-20	58
COc1ccc(/C=C(\NC(=O)c2ccco2)C(=O)NCc2ccco2)cc1	.	.	1.3	.	1
C=CCN(c1ccccc1Cl)S(=O)(=O)c1cc(C(=O)N2CCCC2)ccc1Cl	10%	.	6.3	.	-5
O=C(COC(=O)c1ccc(O)cc1)Nc1cc(C(F)(F)F)ccc1Cl	0%	.	4.1	-7	0
CN1CCN(S(=O)(=O)c2ccc(Nc3ccc(F)cc3)c([N+](=O)[O-])c2)CC1	.	.	1.1	.	1
O=C(CN1C(=O)c2cccc([N+](=O)[O-])c2C1=O)N1CCN(c2ccc(F)cc2)CC1	-2%	.	-2.8	1	.
CC(=O)c1cccc(CN(C)CC2CCCN(CCc3ccccc3C)C2)c1 (centres undefined)	.	.	0.6	.	-9
CCOC(=O)N/N=C/c1ccc(F)cc1	-4%	-6	-0.6	6	-2
Clc1ccccc1C1NCc2ccccc2-n2cccc21 (centres undefined)	7%	.	0.7	7	3
COc1cccc(NC(=O)CN(C)C(=O)CSc2nc3ccccc3s2)c1	.	.	4.5	.	-6
SMILES	Mtb H37Rv	YopH inh	RecA splice inh	Arbovirus inh	Mtb betalactam	others
O=C(c1ccc(NC2=NC3CS(=O)(=O)CC3S2)cc1)N1CCN(C(=O)c2ccco2)CC1 (centres undefined)	-3%	-34	.	3	-1	Arbovirus inh repeat=0
Cn1cc(CN2CCc3ccccc3C2)c2ccccc21	-1%	24	5.8	-2	?
CCCCC(=O)N1CCN(c2ccc(OC)cc2[N+](=O)[O-])CC1	7%	-12	-2.5	2	-1
CCOC(=O)N1CCC(NC(=O)CSCc2nc(-c3ccc(OC)c(OC)c3)oc2C)CC1	-7%	-25	0.8	12	5
O=C(Nc1ccc(F)cc1F)NC1CC(=O)N(Cc2ccccc2)C1 (centres undefined)	-12%	-32	2.0	5	1
O=C(Cn1nc(C(F)(F)F)cc1C1CC1)Nc1ccccc1F	2%	-16	2.4	-3	-2
CCCC(=O)Nc1cccc(Oc2nc(C)cc(C)c2C#N)c1	0%	-34	-1.2	0	-9
C/C(=N\N1CCN(Cc2ccccc2Cl)CC1)c1ccc(F)cc1	-2%	.	1.7	.	-7
C=CCNC(=S)NCCO	.	.	0.8	.	7
CC(=O)c1ccc(NS(=O)(=O)c2ccc(C(C)(C)C)cc2)cc1	-1%	.	-1.2	20	-5
O=C(CSc1nc2ccc(Cl)cc2[nH]1)N1CCN(C(=O)c2ccco2)CC1	3%	-31	-0.8	-2	0
COc1ccc(-n2c(=O)c3ccccc3c3ccccc3c2=O)cc1	3%	-30	31*	7	7
O=C(Nc1ccccc1)c1c2c(nc3ccccc13)CCCC2	2%	.	-2.2	.	.
COc1ccc2c([N+](=O)[O-])c(Cl)[nH]c2c1	-5%	.	7.6	3	-3
CSc1nnc(-c2ccccc2)c(-c2ccccc2)n1	14%	.	5.1	.	-3
COc1ccc(C2c3c(oc4ccccc4c3=O)C(=O)N2c2ccccn2)cc1 (centres undefined)	29%	.	-0.5	12	-2	Arbovirus inh repeat=-3
CC#CCN1C(=O)N[C@@H](c2ccccc2)C(C(=O)OC)=C1C	-6%	.	-0.7	.	-3
COc1ccc(CNC(=O)CN2C(=O)CSc3ccc(S(=O)(=O)N4CCCCC4)cc32)cc1	.	.	-0.6	.	-3

Entries shown so far that contain two or more sulfur atoms (10):
SMILES	Mtb H37Rv	YopH inh	RecA splice inh	Arbovirus inh	Mtb betalactam	others
COC(=O)Cn1c(=NC(=O)c2nc3ccccc3s2)sc2cc(S(N)(=O)=O)ccc21	4%	4	-2.7	1	3
Cc1nc(NC(=O)c2ccccc2)sc1-c1csc(NCc2ccccc2)n1	23%	17	7.0	-27	85
O=C(CCNS(=O)(=O)c1ccc(Br)cc1)NCc1cccs1	1%	.	0.4	5	3
CCCNC(=O)C(Cc1ccccc1)NS(=O)(=O)c1cccc2nsnc12 (centres undefined)	-9%	-5	0.5	4	-2
O=C(CNC(=S)N(CCCN1CCOCC1)Cc1cccs1)NCCN1CCOCC1	5%	-15	0.6	-11	?
Cc1cc(=O)[nH]c(SCC(=O)Nc2nnc(CC(C)C)s2)n1	-5%	-56	-2.7	10	-2
Cc1csc(NC(=O)CSc2ccc3nnc(CCNS(=O)(=O)c4ccccc4)n3n2)n1	-1%	-25	-1.3	2	7
COc1cccc(NC(=O)CN(C)C(=O)CSc2nc3ccccc3s2)c1	.	.	4.5	.	-6
O=C(c1ccc(NC2=NC3CS(=O)(=O)CC3S2)cc1)N1CCN(C(=O)c2ccco2)CC1 (centres undefined)	-3%	-34	.	3	-1	Arbovirus inh repeat=0
COc1ccc(CNC(=O)CN2C(=O)CSc3ccc(S(=O)(=O)N4CCCCC4)cc32)cc1	.	.	-0.6	.	-3

This is a subset; rates above refer to the full screens.
